Screens as filed in PubChem.
PMP22 txn prim: modulates PMP22 transcription in S16 Schwann cells; hit rate 2% among 43,000; S16 Pmp22-F2sN Schwann cells (luciferase reporters placed in the Pmp22 gene), FLuc/NLuc coincidence luminescence, 24 h; Potency, µM (doses to about 57.5 µM), inactives show at the highest dose activity change, negative = inhibition, actives largely listed as inhibitors; active = clear falling dose curves in both reporters; inconclusive = both reporters move, but less clearly or upward; inactive = either reporter flat; the % is the NLuc reporter signal; also: % is scaled to controls: 0 for no effect and ±100 for the full control effect; some results filed as inactive show a strong effect at the top dose
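qHTS, 1536-well. Cells seeded, compounds added by pin tool, 24 h 37C. Nano-Glo reagent 1 (lysis/FLuc), 10 min RT, read; Stop&Glo, 10 min RT, read NLuc.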
HTT promoter inh: inhibitors of huntingtin promoter activity; HEK293 HTT promoter firefly luciferase reporter (activity 0% = vehicle and -100% = no light), 24 h; Potency, µM (highest dose often 57.5 µM), inactives show at the top dose activity change, negative = inhibition, most hits filed as inhibitors; AID 1508623; hit rate 0.93% among 48,000; active = well fitted inhibition curve with a large enough effect; inconclusive = small, poorly fitted or top-dose-only effect; inactive = no such curve, though single readings can be large or run the other way; also: nearly all actives have a fitted effect of over 50% in size
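Luminescence was read after Dual-Glo reagent and a 10 min room-temperature incubation. Values were normalized to vehicle (0% activity) and zero RLU (-100% activity). Reporter HEK293 cells had been exposed to compounds (up to 57.5 uM final) for 24 h.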
Numbers without * were called inactive; u = inconclusive; x = no result given; [ ] = dose if it differs, or a comment. Potency is read from the fitted curve at half-maximal effect. This is a random part of the collection; about 2.4% have a hit in one of these screens.

Start of the listing, in advance (four entries):
SMILES	PMP22 txn prim	HTT promoter inh
CCCN(CCC)C(=O)C1CCCN(c2ncnc3onc(-c4ccc(F)cc4)c23)C1 (stereo not drawn)	-8%	1%
COc1ccc(S(=O)(=O)c2cn(CC(=O)Nc3ccccc3)c3ccc(Cl)cc3c2=O)cc1	u	-29%
N#Cc1ccc(NC(=O)COCc2cc(-c3ccco3)on2)cc1	-7%	-7%
OCc1cnc(SCc2ccc(F)cc2)n1Cc1ccc(F)cc1	-30%	-36%

The whole of this part, from the start:
SMILES	PMP22 txn prim	HTT promoter inh
CCCN(CCC)C(=O)C1CCCN(c2ncnc3onc(-c4ccc(F)cc4)c23)C1 (stereo not drawn)	-8%	1%
COc1ccc(S(=O)(=O)c2cn(CC(=O)Nc3ccccc3)c3ccc(Cl)cc3c2=O)cc1	u	-29%
N#Cc1ccc(NC(=O)COCc2cc(-c3ccco3)on2)cc1	-7%	-7%
OCc1cnc(SCc2ccc(F)cc2)n1Cc1ccc(F)cc1	-30%	-36%
Cc1ccc(C)c(NC(=O)N2CCC(N3CCN(Cc4ccc(F)cc4)C(=O)C3=O)CC2)c1	9%	-12%
CCCCOc1ccc(CNC(=O)CCCN2C(=O)CSc3c2c(C)nn3-c2ccccc2)cc1	u	u
CCOc1ccc(-n2c(C)nc3c(cnn3-c3ccc(C)cc3)c2=O)cc1	u	-18%
Cc1ccc(C)c(NS(=O)(=O)c2ccc3c(c2)CCCN3C(=O)C2CCC2)c1	u	u
CC(C)OCCCn1c(SCC(N)=O)nc2c(sc3ccccc32)c1=O	u	-4%
COc1ccc(N2CCN(C(=O)C3CCN(S(=O)(=O)c4cnc[nH]4)CC3)CC2)cc1	4%	-16%
C=Cc1ccc(CN2C(=O)N(c3ccc(CC)cc3)S(=O)(=O)c3ccccc32)cc1	-6%	-30%
Cc1cc(=O)[nH]c2nnc(SCC(=O)Nc3ccc(F)cc3F)n12	-1%	1%
CCOc1ccccc1NS(=O)(=O)c1c(C(=O)OC)sc2cccc(F)c12	u	0%
N#Cc1nc(/C=C/c2ccc(F)cc2)oc1N1CCCCC1	-11%	-6%
Cc1c(Cl)cccc1NC(=O)Nc1nnc(N2CCCCCC2)s1	13%	-11%
COc1ccc(CCN2C(=O)c3oc4cc(C)cc(C)c4c(=O)c3C2c2ccccc2F)cc1OC (stereo not drawn)	4%	-13%
CCn1c(=O)n(CC2CCC(C(=O)NC(C)C)CC2)c(=O)c2sccc21 (stereo not drawn)	5%	1%
CC(=O)c1ccc(NC(=O)CN2C(=O)CCc3ccccc32)cc1	-2%	-12%
Cc1c(C(=O)N2CCC(c3nc4ccccc4s3)CC2)oc2cc(Br)ccc12	-4%	-6%
COc1ccc(CN2CCN(S(=O)(=O)c3ccc(NC(C)=O)cc3)CC2)c(OC)c1OC	-17%	-30%

In another format: two of the compounds above
| canonical_smiles | PMP22 txn prim | HTT promoter inh |
| --- | --- | --- |
| Cc1c(Cl)cccc1NC(=O)Nc1nnc(N2CCCCCC2)s1 | 13% | -11% |
| COc1ccc(CN2CCN(S(=O)(=O)c3ccc(NC(C)=O)cc3)CC2)c(OC)c1OC | -17% | -30% |

More structures follow:
SMILES	PMP22 txn prim	HTT promoter inh
CCC(C(=O)OC)n1nnc2sc(-c3ccccc3)cc2c1=O (stereo not drawn)	u	9%
O=c1cc(-c2ccccc2)c2cc(Cl)c3c(c2o1)CN(Cc1ccccc1)CO3	-5%	-13%
CC(=O)N1CCc2c(sc3c2c(=O)n(-c2ccccc2)c(=O)n3CC(=O)Nc2ccccc2)C1	u	-14%
CCOC(=O)c1c(C)oc2nc(C)nc(NCc3cccc(Cl)c3)c12	-49%	-10%
Cc1nc2c(c(C)c1CCC(=O)N1CCN(c3ccccc3)CC1)c(=O)n(C)c(=O)n2C	-4%	-13%
Cc1c(C(=O)N2CCCC2)oc2c1-c1nn(CC(=O)NCc3ccccc3Br)cc1CC2	u	u
Cc1cc(C)cc(NS(=O)(=O)c2ccc3[nH]cc(C(=O)N4CCCCCC4)c(=O)c3c2)c1	-2%	-1%
Cc1ccc2oc(C(=O)N(Cc3ccc(N(C)C)cc3)CC3CCCO3)c(C)c2c1 (stereo not drawn)	-42%	-16%
NC(=O)Nc1cc(-c2cccc(F)c2)sc1C(=O)N[C@H]1CCCNC1	x	u
CCOC(=O)c1cc(-c2ccccc2)n(-c2cccc(C(=O)Nc3ccc(OCC)cc3)c2)c1C	-6%	u
CCOc1ccc(NC(=O)CSc2nnc(CC)c(CC)n2)cc1	-4%	-21%
COc1ccccc1CNc1nccn(-c2ccc(F)cc2)c1=O	u	3%
CCOC(=O)c1ccc(N2C(=O)c3n[nH]c(C)c3C2c2ccc(CC)cc2)cc1 (stereo not drawn)	0%	-25%
Cc1ccc(-c2nc(S(=O)(=O)c3ccc(F)cc3)c(N3CCN(c4ccccc4)CC3)o2)cc1	u	-14%
COc1ccc(OC)c(NC(=O)CSC2=Nc3ccccc3C3=NC(CC(=O)NCc4ccc5c(c4)OCO5)C(=O)N23)c1 (stereo not drawn)	-11%	0%
CCOc1ccc(N(CC(=O)Nc2cc(OC)cc(OC)c2)S(=O)(=O)c2c(C)[nH]c(=O)[nH]c2=O)cc1	43%	-18%[11.5 µM]
COc1ccc(NC(=O)CSc2c(C(C)C)cnc3c2c(=O)n(C)c(=O)n3C)c(OC)c1	7%	0%
CCn1c(CN2CCCCC2)nc2cc(NC(=O)COc3cc(C)ccc3C(C)C)ccc21	u	u
Cc1c(C(=O)Nc2cccc(C(F)(F)F)c2)oc2ccc(S(=O)(=O)N(C)C3CCCCC3)cc12	-37%	-7%
CCN(CC)CC(C)CNC(=O)c1cc(-c2ccc(Br)s2)nc2ccccc12 (stereo not drawn)	u	-18%

Next section, starting with the last five of the part before.
SMILES	PMP22 txn prim	HTT promoter inh
CCOc1ccc(N(CC(=O)Nc2cc(OC)cc(OC)c2)S(=O)(=O)c2c(C)[nH]c(=O)[nH]c2=O)cc1	43%	-18%[11.5 µM]
COc1ccc(NC(=O)CSc2c(C(C)C)cnc3c2c(=O)n(C)c(=O)n3C)c(OC)c1	7%	0%
CCn1c(CN2CCCCC2)nc2cc(NC(=O)COc3cc(C)ccc3C(C)C)ccc21	u	u
Cc1c(C(=O)Nc2cccc(C(F)(F)F)c2)oc2ccc(S(=O)(=O)N(C)C3CCCCC3)cc12	-37%	-7%
CCN(CC)CC(C)CNC(=O)c1cc(-c2ccc(Br)s2)nc2ccccc12 (stereo not drawn)	u	-18%
CCOc1ccccc1N1CC(c2nc3ccccc3n2CCCOc2ccccc2)CC1=O (stereo not drawn)	u	-30%
CCOC(=O)N1CCc2c(sc3c2c(=O)n(CCc2ccccc2)c(=O)n3Cc2ccc(C)cc2C)C1	29%	-4%
Cc1ccc(Nc2c(-c3cccnc3)nc3ccc(Br)cn23)cc1	-30%	14%
Cc1ccc(Cl)cc1N1CCN(C(=O)c2ccc3c(Cl)c4c(nc3c2)CCCC4)CC1	u	-8%
COc1ccc(NC(=O)c2cc(=O)c3ccc(C)c(C)c3o2)cc1Cl	-9%	-9%
COc1ccc2c(c1)cc(CNc1ccc(OC)c(OC)c1)c(=O)n2CC(=O)Nc1ccc(F)cc1	-16%	-28%
O=C(Cn1c(=O)n(Cc2nc(-c3ccccc3)no2)c(=O)c2ccccc21)Nc1cccc(C(F)(F)F)c1	u	u
O=c1cc(-c2ccc(F)cc2)nc(SCc2nc(-c3ccc(Cl)cc3)no2)[nH]1	0%	5%
O=C(CSc1ncc(-c2ccccc2)[nH]1)Nc1ccc(Cl)cc1	23%	2%
CCOc1cccc(C(=O)N(Cc2ccc(C(C)C)cc2)C2CCS(=O)(=O)C2)c1 (stereo not drawn)	-11%	-25%
COc1cc(OC)cc(C(=O)Nc2ccc3nc(N4CCC(C)CC4)cc(C)c3c2)c1	u	u
COCCCNC(=O)c1c(NC(=O)Cc2coc3cc(C)cc(C)c23)sc2c1CCCC2	u	-21%
COc1ccc2cccc(CCNC(C)=O)c2c1	x	-2%
CCc1cccc(NC(=O)Cn2c(C(=O)OC)cc3occc32)c1	19%	-18%
Nc1c(-c2nc(-c3ccccc3)no2)nnn1CC(=O)Nc1ccccc1	-3%	14%
COc1ccc(OC)c(NC(=O)c2nc(SCc3ccc(F)cc3)ncc2Cl)c1	-45%	0%
COc1ccc(NC(=O)Cn2cc(C(=O)c3ccccc3OC)c(=O)c3ccc(C)nc32)cc1OC	-7%	-21%
Cc1ccc2nc(-c3ccc(NC(=O)C(F)(F)F)cc3)sc2c1	-11%	-18%
O=C(CCn1c(=O)c2cccn2c2ccc(F)cc21)NCCc1ccccc1Cl	u	-7%
O=c1cc(COc2ccc(Cl)cc2Cl)nc2scc(-c3ccccc3)n12	u	-6%
CCC(=O)N[C@H]1CC[C@H](C(=O)N(C)c2ccc(-c3nc4ccccc4o3)cc2)C1	x	-9%
O=C(O)C(O)Cc1ccc(O)c(O)c1 (stereo not drawn)	x	7%
Cc1cccc(OCC(=O)Nc2cccc(C(=O)OCc3cc(=O)n4c(C)csc4n3)c2)c1	-2%	u
Cc1ccc(-c2nn3c(=O)cc(CN4CCN(S(=O)(=O)c5ccc(Cl)cc5)CC4)nc3s2)cc1	3%	-22%
O=C(Nc1ccc(Cl)cc1)c1ccc(-n2cnnc2)cc1	9%	-3%[11.5 µM]
COc1ccc(CCNC(=O)c2c(O)nc3ccccn3c2=O)cc1OC	-119%	-12%
COc1ccc(-c2cc(C(F)(F)F)n3ncc(-c4ccccc4)c3n2)cc1	-47%	-7%
COc1ccc(Cl)cc1NC(=O)c1cc2nc(-c3ccc4c(c3)OCO4)cc(C(F)(F)F)n2n1	7%	-3%
CCn1c(C(=O)N2CCC(C(=O)N3CCN(c4cc(C)ccc4C)CC3)CC2)cc2sccc21	u	u
O=C(CSc1nc2c([nH]c3ccccc32)c(=O)n1-c1ccccc1)Nc1ccc2c(c1)OCO2	u	u
CCOc1ccc(-c2nc3c(C#N)c[nH]n3c2NC2CCCCC2)cc1	u	-4%
Cc1cccc(CNC(=O)Cc2csc3ccccc23)c1	14%	69%[activator]
COc1cc(OC)c(NC(=O)NC(C)c2c(-n3cccc3)sc(C)c2C)cc1Cl (stereo not drawn)	-22%	u
COc1ccc(-c2cc(-c3ccccc3)c(C#N)c(SCC(O)CS(=O)(=O)Cc3ccccc3)n2)cc1 (stereo not drawn)	0%	-26%
CC1CCC(NC(=O)c2ccc(CS(=O)(=O)c3ccc(Cl)cc3)o2)CC1 (stereo not drawn)	-27%	u
Cc1cc(C)cc(NC(=O)N2CCC3(CC2)Oc2ccccc2C(=O)N3Cc2ccccc2F)c1	-7%	-26%
O=C1c2oc3ccccc3c(=O)c2C(c2ccc(O)cc2)N1Cc1ccc2c(c1)OCO2 (stereo not drawn)	-19%	21%
COc1ccccc1NC(=O)C1CCN(c2cnccn2)CC1	3%	-7%
CCOC(=O)N1CCN(C(=O)c2ccc3c(c2)N(Cc2cc(C)ccc2C)C(=O)c2ccccc2S3=O)CC1 (stereo not drawn)	u	u
CC(=O)Nc1ccc(NC(=O)c2ccc(COc3ccc(Cl)cc3Cl)o2)cc1	-24%	-17%
Cc1ccc(N2CC(c3nnc(Cc4ccccc4Cl)o3)CC2=O)cc1 (stereo not drawn)	9%	-17%
CCOc1ccccc1NC(=O)C1CCCN(c2ncnc3onc(-c4ccc(F)cc4)c23)C1 (stereo not drawn)	-5%	-16%
CCCN1Cc2cccc(C(=O)Nc3ccccc3F)c2C1=O	u	-12%
CCOc1ccc(-c2cc(C(=O)N3CCN(c4cc(Cl)ccc4C)CC3)c3ccccc3n2)cc1	-15%	-16%
COc1ccc(CNC(=O)C(CC(C)C)NS(=O)(=O)c2ccc3c(c2)CCN3C(C)=O)cc1 (stereo not drawn)	-4%	-5%
O=C(Nc1cccc(C(=O)N2CCN(c3ccc(F)cc3)CC2)c1)c1nsc2ccccc12	-134%	-10%
CCOC(=O)c1cc(NC(=O)c2ccc(C)cc2)c(=O)n2c1oc1ccc(Cl)cc12	-10%	-12%
COc1ccc(/C=C/C(=O)c2ccc(OC)cc2OC)cc1	x	0%
O=C(COc1ccccc1-c1nc(-c2ccccc2)no1)Nc1cccc([N+](=O)[O-])c1	u	-10%
COc1ccc(-c2cn3c(n2)sc2cc(C(=O)Nc4cccc(OC)c4)ccc23)cc1	7%	-13%
Other records follow.
SMILES	PMP22 txn prim	HTT promoter inh
CCOC(=O)c1cccc(NC(=O)CCn2c(=O)oc3ccccc32)c1	-4%	-14%
Cc1ccc(N2CC(NC(=O)c3ccc(Br)o3)CC2=O)cc1C (stereo not drawn)	14%	-27%
CC(C)(C)c1ccc(C(=O)NCC(=O)OCc2cc(=O)n3nc(C4CC4)sc3n2)cc1	u	-28%
Cc1cccc(C(=O)N2CCc3cc(CNC(=O)CSc4ccccc4)ccc32)c1	-3%	-22%
CCN1Cc2cccc(C(=O)Nc3ccc(F)cc3)c2C1=O	u	-10%
CCn1c(=O)c(=O)n(CC)c2cc(N3CCCCC3)c(NC(=O)c3cccc(OC)c3)cc21	-13%	-6%
COc1ccc(-c2nc3cc(NC(=O)c4cc5ccccc5o4)ccc3o2)cc1	-25%	9%
O=S(=O)(NCCc1csc2nc(-c3ccccc3)nn12)c1cccs1	u	-24%
CCc1ccccc1NC(=O)CN(C)S(=O)(=O)c1cccc2nsnc12	-54%	-25%
COc1ccc(-n2c(SCC(N)=O)nc3c(oc4ccccc43)c2=O)cc1	8%	-20%
COc1ccc(Cl)cc1NC(=O)c1sc2nc(-c3ccc(OC)c(OC)c3)ccc2c1N	-14%	u
